Compound activity deposited in PubChem BioAssay by several laboratories.
INS promoter inh: TRM-6 insulin promoter activity inhibition; TRM-6 cells (human fetal islet line), insulin promoter-eGFP reporter, imaging; reporter expression induced with tamoxifen; hit rate 0.9% among 130,000; inhibition, % at 2 µM;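 active means inhibition above the mean plus 3 SD, with well images judged a real hit on visual review, cut at about 60% in these data, passing the limit was not always enough; inconclusive means inhibition over the cutoff but images rejected on review; inactive means inhibition not above the cutoff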
PKD1 kinase inh: inhibitors of human PKD1 kinase; Q15139; inhibition, %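 (about 10 µM by stock and volumes)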; hit rate 0.056% among 200,000; AID 797; PKD1 kinase fluorescence polarization assay;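 active means inhibition of 50% or more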;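 further: controls were vehicle for no effect and a reference inhibitor for full effect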
Target sequence (Q15139 whole entry, looked up): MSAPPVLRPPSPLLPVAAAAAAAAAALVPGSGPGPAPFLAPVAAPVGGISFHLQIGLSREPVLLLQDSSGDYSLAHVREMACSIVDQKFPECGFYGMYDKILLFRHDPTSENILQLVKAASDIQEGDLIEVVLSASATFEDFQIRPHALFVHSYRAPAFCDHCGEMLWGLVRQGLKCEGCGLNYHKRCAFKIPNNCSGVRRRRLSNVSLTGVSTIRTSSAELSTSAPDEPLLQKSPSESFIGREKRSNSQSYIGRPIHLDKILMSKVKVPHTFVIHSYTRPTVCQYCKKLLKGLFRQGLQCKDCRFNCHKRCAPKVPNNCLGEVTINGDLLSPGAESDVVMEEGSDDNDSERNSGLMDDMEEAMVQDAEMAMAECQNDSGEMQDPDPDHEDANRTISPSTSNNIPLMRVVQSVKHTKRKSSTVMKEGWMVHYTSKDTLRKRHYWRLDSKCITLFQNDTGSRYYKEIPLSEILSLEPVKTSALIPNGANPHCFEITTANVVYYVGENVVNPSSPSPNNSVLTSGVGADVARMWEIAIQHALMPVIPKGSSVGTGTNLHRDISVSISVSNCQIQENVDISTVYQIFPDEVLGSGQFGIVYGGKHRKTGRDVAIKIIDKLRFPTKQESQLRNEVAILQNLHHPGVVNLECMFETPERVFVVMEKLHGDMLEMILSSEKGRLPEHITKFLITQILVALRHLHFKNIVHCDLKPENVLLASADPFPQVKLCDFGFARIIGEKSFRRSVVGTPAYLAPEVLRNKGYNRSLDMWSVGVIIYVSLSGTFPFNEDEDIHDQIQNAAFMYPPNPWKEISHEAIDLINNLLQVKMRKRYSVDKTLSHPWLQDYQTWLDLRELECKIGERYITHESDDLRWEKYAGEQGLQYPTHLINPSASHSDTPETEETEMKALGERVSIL
GALR2 agonist: activates the human galanin receptor 2; GALR2-expressing cells, agonist activation read-out; activation, %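 (tested at 5 µM)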; hit rate 0.48% among 140,000; AID 803;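 active means above mean plus 3 SD of all compounds, about 5% in these data, not always enough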;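 further: 0% = vehicle buffer wells and 100% = reference agonist at full effect; tested in CHO reporter cells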
HSV replic up: increases HSV replication in cells | hit rate 0.005% among 220,000 | HSV replication augmentation in cells, fold increase | maximum fold increase | AID 1956;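 active means peak rise of 1.5-fold or more in the series; inconclusive means self-fluorescent or not available for retest; tested in PC3 cells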;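 further: first round at 10 µM; read as green reporter fluorescence; hits show the peak of a series up to 25 µM; 1 = signal of infected wells without compound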
RGS16-Gao: regulators of human RGS16-Galphao interaction. bead-based flow cytometry RGS16-Galphao binding, fluorescence; actives lie on both sides. binding response (% of control), % at 10 µM. O15492+P09471. hit rate 0.38% among 220,000;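 active means below 25% or above 175%, edge rows of some plates excepted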;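 further: Galphao activated by GDP with aluminum fluoride before binding; 100% = wells without compound and 0% = beads without RGS; some results beyond the cut were filed as inactive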
INS promoter inh cell count: further read-out of INS promoter inh, marked with its call; normalized cell count, %; measured here: cell count, toxicity; reference of the scale not given here;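 cells exposed to compound for 48 h; stained nuclei by imaging scaled within each plate; lower means fewer cells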
HSV replic up primary fold: second read-out of HSV replic up, no call of its own (marks repeat the call); fold increase; compound at 10 µM; measured here: primary screen fold increase 10 uM; tested in PC3 cells;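 GFP signal in the first replicate; 1 = infected wells without compound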
Active calls of the source: *; i = inactive; ? = inconclusive; . = no result given. An unsorted share of the library, and some 1.3% of all compounds hit somewhere here.

The line under a structure holds: PKD1 kinase inh	INS promoter inh cell count	RGS16-Gao	INS promoter inh	GALR2 agonist	HSV replic up	HSV replic up primary fold
1. CC(=O)NC(c1ccc(C)cc1)c1cc([N+](=O)[O-])c2cccnc2c1O (stereo unspecified)
  1	.	86	.	.	i	0.62
2. CN(C)S(=O)(=O)Oc1cccc(C(=O)Nc2cccc(Cl)c2)c1
  -13	173	97	-23	-1.1	i	0.85
3. COc1ccccc1C(=O)Nc1ccc(Br)cc1C
  -9	.	96	.	.	i	1.1
4. CN(C)c1ccc(C(=O)OCC(=O)NCCC2=CCCCC2)cc1
  -2	.	100	.	.	i	0.98
5. COc1ccc(OC)c(/C=C/C(=O)c2ccc(Cl)cc2)c1
  10	.	97	.	0.7	i	0.71
6. COc1cc2oc(=O)ccc2c(OC)c1CC(O)C(C)(C)O (stereo unspecified)
  .	.	99	.	.	i	1
7. CCOc1cccc(C(=O)NC(c2ccccc2)C(C)C)c1 (stereo unspecified)
  -5	.	103	.	.	i	0.87
8. CCCNC(=O)c1c(NC(=O)C2COc3ccccc3O2)sc2c1CCCC2 (stereo unspecified)
  -1	89	108	-52	-1.5	i	1.1
9. CC1(O)CC(c2ccc(Cl)cc2)=NN1C(=O)c1ccc([N+](=O)[O-])cc1 (stereo unspecified)
  -11	.	96	.	.	i	0.82
10. Clc1ccc(/C=C\c2nccc3c2[nH]c2ccccc23)cc1
  -3	101	96	-41	.	i	0.86
11. COc1ccccc1Nc1nc(-c2sc(NC(=O)c3ccco3)nc2C)cs1
  8	127	96	9	0.6	i	1.2
12. CC(Oc1ccc(Cl)cc1)C(=O)Nc1nccs1 (stereo unspecified)
  -1	.	99	.	-1.4	i	0.82
13. CCCCNC(=O)Nc1ccnn1C1CCCCC1
  -19	112	99	35	-2.5	i	0.96
14. c1ccc(CSc2nnc(-c3ccccn3)n2-c2ccccc2)cc1
  -7	72	106	-49	-3.0	i	1
15. Cc1ccccc1Nc1nnc(SCC(=O)Nc2ncc(C(F)(F)F)cc2Cl)s1
  -9	.	115	.	-0.3	i	0.9
16. CS(=O)(=O)Nc1ccc(C2=NN(S(=O)(=O)c3ccc(F)cc3)C(c3ccco3)C2)cc1 (stereo unspecified)
  3	.	99	.	.	i	1
17. O=C(O)c1ccccc1C(=O)c1ccc(Cl)cc1
  .	.	100	.	.	i	1
18. Cc1c(Nc2nc3ccccc3nc2NS(=O)(=O)c2cccs2)c(=O)n(-c2ccccc2)n1C
  -2	38*	103	75*	-0.8	i	1
19. O=C(/C=C/Nc1ccc(Oc2ccccc2)cc1)c1ccco1
  -4	.	95	.	.	i	1
20. CCCN(CCC(=O)Nc1cc(OC)cc(OC)c1)CC1CC1
  0	.	101	.	-1.6	i	0.92
21. CC(=O)c1sc(NC(=O)C(C)(C)C)nc1C
  -10	97	109	-281	-1.9	i	1
22. CSc1nccc(-c2cc(Cl)sc2Cl)n1
  -1	58	95	7	-1.4	i	0.75
23. COc1cc(CNc2nc(C)c([N+](=O)[O-])c(C)c2C#N)cc(OC)c1OC
  5	138	101	19	0.7	i	0.86
24. CCC(Sc1ccc2nnc(CCNS(=O)(=O)c3ccc(OC)cc3)n2n1)C(=O)OC (stereo unspecified)
  -6	.	102	.	.	i	0.88
25. CCOC(=O)c1c(-c2cccs2)csc1NC(=O)c1ccncc1
  8	.	106	.	-3.7	i	0.82
26. Cc1cccc(C(=O)OCc2cncs2)c1
  1	.	102	.	.	i	1.1
27. O=C1c2cccnc2C(=O)N1Cc1cccs1
  5	.	93	.	-2.0	i	0.93
28. COc1ccc(OCC(=O)Nc2ccccc2-c2ccccc2)cc1
  4	52	97	20	.	i	0.86
29. COc1ccc(CNC(=O)/C(C#N)=C2\N=C(NC(=O)c3cccs3)c3ccccc32)cc1
  10	89	103	-29	-1.5	?	.
30. O=C(Nc1cccc(C(F)(F)F)c1)Oc1ccc(Cl)c2cccnc12
  .	.	31	.	.	i	0.81
31. Cc1ccc(S(=O)(=O)N2CCN(S(=O)(=O)N3CCOCC3)CC2)cc1C
  -6	69	100	47	-1.3	i	1.1
32. CN(C)Cc1cccc([N+](=O)[O-])c1O
  .	.	90	.	.	i	0.87
33. COc1cc(CNCC(O)c2ccccc2)ccc1OCc1ccc(Cl)nc1 (stereo unspecified)
  3	104	105	20	-0.8	i	0.84
34. COCCNC(=O)c1ccccc1NC(=O)Cc1ccccc1[N+](=O)[O-]
  -3	.	121	.	.	i	1
35. O=S(=O)(NCCc1ccncc1)c1ccccc1
  -4	61	128	47	-2.4	i	0.97
36. Cc1ccc(C(=O)N2CCN(c3ccc(C(F)(F)F)cn3)CC2)c(C)c1
  -3	103	109	0	-1.9	i	1
37. CCn1c(C)nc2cc(C(=O)NNC(=O)c3ccc(Cl)nc3)ccc21
  -1	50	117	50	.	i	1.1
38. O=C(Cc1n[nH]c(=O)c2ccccc12)NCc1ccccn1
  3	101	102	40	-0.8	i	0.88
39. CCCC(=O)N1CCN(c2ccc([N+](=O)[O-])cc2Cl)CC1
  -7	97	101	21	0.2	i	1.1
40. O=C(N/N=C/c1ccccc1C(=O)O)c1ccccc1Br
  4	62	111	-7	.	i	0.88
41. CCOC(=O)C1=C(N)Oc2c(oc(CO)cc2=O)C1c1c(F)cccc1Cl (stereo unspecified)
  -5	143	102	35	-2.3	i	0.89
42. c1ccc(-c2c3ccccc3nc3[nH]c4ccccc4c23)cc1
  20	104	105	15	5.0*	i	0.92
43. Cc1nn2c(NCCCN(C)C)c3c(nc2c1-c1ccccc1)CCCC3
  .	.	102	.	.	i	0.81
44. Cc1ccccc1OCCNC(=O)c1ccc2ccccc2n1
  -6	122	100	-9	-0.3	i	0.98
45. O=c1nc(N(c2ccccc2)c2ccccc2)[nH]c(=O)[nH]1
  -2	.	108	.	-4.9	i	0.8
46. O=C(Oc1ccc(Cl)c2cccnc12)N1CCCCCC1
  0	76	108	-200	-1.7	i	0.99
47. CC(C)(C)c1ccc(C(=O)NNC(=O)c2ccccc2Br)cc1
  -12	57	103	-47	-1.9	i	0.74
48. c1nc(NC2CCCCC2)c2[nH]cnc2n1
  0	135	104	-21	-0.5	i	0.8
49. Cc1ccc(S(=O)(=O)NCC2CCC(C(=O)NCc3cccs3)CC2)cc1 (stereo unspecified)
  -9	93	103	43	.	i	0.73
50. COc1ccc(S(=O)(=O)NC(CCSC)C(=O)NC2CCCCC2)cc1 (stereo unspecified)
  -4	60	117	-36	.	i	1.1
51. CCn1c(-c2ccccc2Cl)nn(CC(=O)NCCc2ccccc2)c1=S
  5	68	101	-44	-1.0	i	0.96
52. CCOc1cc(CNc2ncn[nH]2)ccc1OCC(=O)NC(C)(C)C
  -6	.	109	.	.	i	1
53. O=C(c1cc([N+](=O)[O-])cc([N+](=O)[O-])c1)N(Cc1nnc(-c2ccccc2Cl)o1)C1CC1
  3	86	100	45	.	i	0.94
54. CC1Oc2ccccc2C=C1C1/C(=C(/O)c2ccccc2)C(=O)C(=O)N1CCCN(C)C (stereo unspecified)
  2	.	105	.	-0.5	i	0.94
55. O=C(Nc1ccc2c(c1)CCC2)c1cc(S(=O)(=O)N2CCN(c3ccccc3)CC2)ccc1Cl
  -4	30	102	-16	-3.6	i	1
56. Nc1nonc1-c1nc2ccccc2n1CCC(=O)O
  -7	.	101	.	-0.9	i	0.84
57. O=C(Cn1c(=O)oc2ccccc21)NC(=O)NCc1ccccc1
  4	100	101	23	-2.1	i	0.97
58. O=C(Nc1cccnc1)Nc1ccc2c(c1)OCO2
  -10	240	100	-31	-0.7	i	0.81
59. COc1cc(C)ccc1OCCOCCOc1ccc(C)cc1[N+](=O)[O-]
  0	80	42	48	-0.9	i	0.98
60. CCC(=O)N1c2ccc(S(=O)(=O)CCC(=O)N3CCn4c3nc3ccccc34)cc2CC1C (stereo unspecified)
  -6	73	95	6	-1.6	i	1

Compound profiles (already shown). Values in the order: PKD1 kinase inh, INS promoter inh cell count, RGS16-Gao, INS promoter inh, GALR2 agonist, HSV replic up, HSV replic up primary fold
`O=C(Oc1ccc(Cl)c2cccnc12)N1CCCCCC1` as listed: 0, 76, 108, -200, -1.7, i, 0.99
`O=C(N/N=C/c1ccccc1C(=O)O)c1ccccc1Br` as listed: 4, 62, 111, -7, ., i, 0.88
`c1nc(NC2CCCCC2)c2[nH]cnc2n1` as listed: 0, 135, 104, -21, -0.5, i, 0.8
`COc1cc(C)ccc1OCCOCCOc1ccc(C)cc1[N+](=O)[O-]` as listed: 0, 80, 42, 48, -0.9, i, 0.98

Next section.
The line under a structure holds: PKD1 kinase inh	INS promoter inh cell count	RGS16-Gao	INS promoter inh	GALR2 agonist	HSV replic up	HSV replic up primary fold
61. O=C(CCCCCN1C(=O)c2ccccc2C1=O)Oc1ccc2c3c(c(=O)oc2c1)CCC3
  -4	86	97	-6	0.7	i	1
62. O=C(C1CCN(S(=O)(=O)c2cccc3nsnc23)CC1)N1CC=C(c2ccccc2)CC1
  -4	69	103	-25	-0.1	.	.
63. CCOc1cccc(NC(=O)C2CCCN(S(=O)(=O)c3ccc(OC)cc3)C2)c1 (stereo unspecified)
  -2	70	99	-15	-0.7	i	0.75
64. O=C(CCC(=O)NNC(=O)COc1ccc(Br)cc1)NCc1ccccc1
  2	.	106	.	.	i	1
65. Cc1nn(Cc2ccccc2Cl)c(C)c1C(=O)Nc1nnc(C2CC2)s1
  3	121	101	0	-1.2	i	0.95
66. C[C@]12CC[C@@H]3c4ccc(OC(=O)c5ccccc5)cc4CC[C@H]3[C@@H]1CC[C@@H]2O
  -14	59	108	-36	-0.7	i	0.93
67. COc1ccc(CC(=O)N[C@@H](CCSC)c2nc3ccccc3[nH]2)cc1
  3	154	113	18	.	i	0.98
68. CCC(Oc1ccccc1)C(=O)Nc1ncc([N+](=O)[O-])s1 (stereo unspecified)
  1	.	105	.	.	i	0.96
69. CC1(C)CC(c2nc(-c3ccc([N+](=O)[O-])cc3)cs2)CCO1 (stereo unspecified)
  -2	109	97	-21	.	i	0.97
70. Cc1cccc(NC(=S)N2CCN(Cc3ccc4c(c3)OCO4)CC2)c1C
  -13	117	100	17	-2.1	i	0.85
71. CC1CN(S(=O)(=O)c2cccc(-c3csc(-c4ccccc4)n3)c2)CC(C)O1 (stereo unspecified)
  -6	86	66	6	-1.7	i	1.1
72. CCOC(=O)N1CCN(CC(O)c2ccc3c(c2)CCN3)CC1 (stereo unspecified)
  -7	.	96	.	-3.1	i	1.3
73. Cn1ncc(-c2ccno2)c1C(=O)O
  -8	.	99	.	.	i	1.2
74. O=C(CN1C(=O)S/C(=C\C=C\c2ccccc2)C1=O)Nc1ccc(O)cc1
  -5	115	71	-4	1.1	i	0.72
75. Cc1ccc2nc(Cl)c(/C=N/NC(=O)c3ccccc3O)cc2c1
  3	102	58	18	-1.4	i	0.8
76. COC(=O)c1c(-c2cccc(C)c2)csc1NC(=O)C1CCCO1 (stereo unspecified)
  -8	.	92	.	.	i	1
77. CS(=O)(=O)N(CC(=O)N1CCN(C(c2ccccc2)c2ccccc2)CC1)C1CCCCC1
  -2	179	107	-34	-0.4	i	0.81
78. COc1ccc(/C=C/c2ccncc2)c2ccccc12
  1	85	98	-16	-1.2	i	0.92
79. Cc1ccc(OCCCC(=O)Nc2ccc3c(c2)OCO3)cc1
  -6	.	94	.	-2.8	.	.
80. CC(=O)Nc1nc(-c2ccc([N+](=O)[O-])cc2)cs1
  1	172	106	8	.	i	0.99
81. CCC(C)(C)NC(=O)CN(C(=O)c1csnn1)c1ccccc1-c1ccccc1
  0	.	105	.	.	i	1.2
82. C=CCN1N=C(c2ccc(NC(=O)c3ccccc3)cc2)CSC1=O
  -1	.	92	.	.	i	0.89
83. CS(=O)(=O)N(CC(=O)Nc1c(F)cccc1F)c1ccc(C23CC4CC(CC(C4)C2)C3)cc1
  8	.	94	.	1.4	i	0.9
84. O=C(C1=C[C@@H](c2ccccc2)C[C@@H](OCCCCO)O1)N1CCN(Cc2ccc3c(c2)OCO3)CC1
  6	.	100	.	.	i	1
85. CCOC(=O)c1ccccc1Nc1cn(C(C)=O)c2ccccc12
  4	97	102	24	2.3	i	0.92
86. COC(=O)CN1C(=O)C(C)=C(c2ccc(C)cc2)S1(=O)=O
  -16	116	97	6	3.5	i	0.86
87. COc1cc(C2SCCS2)cc(Br)c1Oc1ncccc1[N+](=O)[O-]
  .	.	100	.	.	i	1.1

Two of these compounds in another layout.
75: Cc1ccc2nc(Cl)c(/C=N/NC(=O)c3ccccc3O)cc2c1
  PKD1 kinase inh: 3
  INS promoter inh cell count: 102
  RGS16-Gao: 58
  INS promoter inh: 18
  GALR2 agonist: -1.4
  HSV replic up: i
  HSV replic up primary fold: 0.8

76: COC(=O)c1c(-c2cccc(C)c2)csc1NC(=O)C1CCCO1 (stereo unspecified)
  PKD1 kinase inh: -8
  INS promoter inh cell count: .
  RGS16-Gao: 92
  INS promoter inh: .
  GALR2 agonist: .
  HSV replic up: i
  HSV replic up primary fold: 1
